Calb FLC – C. albicans growth inhibition with fluconazole, primary screen, CaCi-2 strain, Alamar Blue fluorescence. C. albicans CaCi-2 (fluconazole-resistant clinical isolate) + fluconazole, 48 h. growth inhibition, % (no concentration beside the values). actives 0.57% (n = 300,000). AID 1979, 2009;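 active = most replicates above 75%; inconclusive = exactly half above 75%; inactive = most below 75%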;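 note: all wells also contain fluconazole at 8 µg/ml as a sub-toxic cotreatment; 0% = median of DMSO wells and 100% = median of geldanamycin control wells; wells of about 8 µL received 7.5 nL stock; the first replicate is given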
Bfl-1 A1 inh – caspase 3/7 activation in MEF A1-2A-BIM cells, primary screen, A1 inhibitor project, cell-based, luminescence, HTS; Caspase-Glo 3/7 luminescence, 3 h; percent of clofoctol response, vehicle zero; caspase activation, % (concentration not given with the values); actives 0.066% (n = 330,000); AID 2462, 2010;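 active = over half of replicate activation scores above 10%, or exactly half above 10 with the replicate mean above 10; inconclusive = replicate mean below 10 yet half the replicates above 10; inactive = over half of replicates below 10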;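 note: wells of about 30 µL received 50 nL stock; many hits fall short of the cut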
Ecoli rRNA inh – reduced GFP signal of wild-type E. coli, primary screen, bacterial rRNA inhibitor project, GFP/RFP fluorescence, OD600, single point | GFP signal change (wild-type ribosome), % (no concentration beside the values) | AID 720706, 2013 | E. coli WT GFP vs humanized-ribosome RFP mutants, 24 h; stronger effect = lower value; DMSO median 0, no signal -100 | actives 1.6% (n = 350,000);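 active = significant combined selectivity score with lowered wild-type GFP, culture density cut under 30%, mutant RFP and density less affected; inactive = any of these conditions unmet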; note: one replicate is shown; some compounds called inactive have numbers as strong as hits
AF4-AF9 inh – inhibitors of AF4 peptide binding to AF9, primary screen, biochemical, AlphaScreen, biotin-AF4 peptide, FLAG-AF9, single point; actives 0.47% (n = 350,000); inhibition, % at 10 µM;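 active = every replicate reaching a set inhibition limit, whatever the replicate mean, cut at about 25% in these data; inconclusive = mean inhibition reaches that limit but some replicates miss it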;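 note: 0% = plate neutral control median and 100% = total signal loss; the record names both 10 and 1 µM as test concentration; the first replicate is given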
Target sequence (P42568 whole entry, looked up): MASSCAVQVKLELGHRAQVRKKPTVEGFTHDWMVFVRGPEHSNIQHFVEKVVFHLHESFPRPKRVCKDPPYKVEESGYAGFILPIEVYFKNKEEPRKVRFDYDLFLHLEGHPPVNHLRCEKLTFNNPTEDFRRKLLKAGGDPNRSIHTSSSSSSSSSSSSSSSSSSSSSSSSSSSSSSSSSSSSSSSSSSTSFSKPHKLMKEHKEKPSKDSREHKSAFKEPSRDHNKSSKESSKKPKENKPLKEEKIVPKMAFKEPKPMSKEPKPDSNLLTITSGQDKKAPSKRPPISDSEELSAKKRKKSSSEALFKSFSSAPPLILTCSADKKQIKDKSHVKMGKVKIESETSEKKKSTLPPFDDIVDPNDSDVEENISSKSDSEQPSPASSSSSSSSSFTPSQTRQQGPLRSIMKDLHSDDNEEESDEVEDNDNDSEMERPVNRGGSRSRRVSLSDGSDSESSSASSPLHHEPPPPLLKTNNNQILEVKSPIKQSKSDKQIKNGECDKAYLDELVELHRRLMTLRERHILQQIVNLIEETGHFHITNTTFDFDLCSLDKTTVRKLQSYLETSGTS
RanGTP-Imp inh – inhibitors of RanGTP-importin-beta interaction, primary screen, biochemical, FRET, CFP-Ran, YFP-importin-beta, homogeneous | Ran GTPase (GTP-bound) - importin-beta complex | cell-free CFP-Ran/YFP-importin-beta FRET ratio | inhibition, % (no concentration beside the values) | actives 1.1% (n = 300,000) | AID 2216, 2009;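 active = most replicates above 15%; inconclusive = exactly half above 15%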;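 note: 0% = DMSO wells and 100% = Ran loaded with GDP instead of GTP; wells of about 40 µL received 100 nL stock; the first replicate is given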
T cruzi inh – inhibitors of intracellular T. cruzi growth, primary screen, luminescence, NIH3T3 host cells; actives 1.4% (n = 300,000); inhibition, % (no concentration beside the values); T. cruzi beta-gal in NIH3T3, 90 h;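 active = mean inhibition across valid replicates above about 55%, limit read from the data; inconclusive = mean below that limit but half or more replicates reach it; inactive = mean below it, under half of replicates reach it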;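 note: signal also drops with host cell toxicity which is not excluded here; 0% = plate median of DMSO wells and 100% = zero luminescence signal; higher percent means less beta-gal luminescence so fewer parasites; stock transfer was 50 nL into about 50 µL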
Vif A3G – inhibitors of Vif binding to APOBEC3G peptide, primary screen, biochemical, TR-FRET, GST-Vif 1-94, biotin-A3G peptide, dose response retest (AID 1117319) | Virion infectivity factor (Human immunodeficiency virus type 1 group M subtype B (isolate … | actives 0.57% (n = 260,000) | TR-FRET GST-Vif / biotin-A3G peptide binding; higher % means a stronger effect; test concentration not given here; strong numbers were not always called active | inhibition, %, or IC50 in µM where a hit was titrated;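 active = above the screen mean plus three standard deviations and confirmed in dose response; inconclusive = results disagree or hit not tested in dose response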;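 note: Vif residues 1-94 fused to GST binding biotinylated APOBEC3G peptide 110-148; 0% = full assay without inhibitor and 100% = GST in place of GST-Vif; retest series ran down from 100 µM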
Beta cell apopt – inhibitors of cytokine-induced beta cell apoptosis, primary screen, luminescence; INS-1E cytokine-induced death, ATP luminescence, 48 h; percent of positive-control rescue, neutral wells zero; protection from apoptosis, % (test concentration not listed); actives 0.8% (n = 300,000);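 active = all replicates at 75% or more, or half of them and the mean; inconclusive = half reach 75% but not the mean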;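 note: 0% = cytokine-treated negative control wells and 100% = positive control rescue; higher means more ATP so stronger rescue from cytokine killing; wells of about 40 µL received 100 nL stock; the first replicate is given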
Ecoli rRNA inh OD600 – also measured in Ecoli rRNA inh; calls as there; OD600 change, %; measured here: OD600 growth;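 optical density of the mix in the first replicate; 0 = DMSO median and -100 = no signal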
Ecoli rRNA inh RFP – recorded beside Ecoli rRNA inh, whose call it bears; RFP signal change, %; measured here: RFP humanized mutant strains;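 first replicate; 0 = DMSO median and -100 = no signal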
Numbers without * were called inactive; ? = inconclusive; . = no result given; & = joins results of further samples. Not all compounds are listed; the hit share may differ from the screen's.

SMILES	Calb FLC	Bfl-1 A1 inh	Ecoli rRNA inh	Ecoli rRNA inh OD600	Ecoli rRNA inh RFP	AF4-AF9 inh	RanGTP-Imp inh	T cruzi inh	Vif A3G	Beta cell apopt
O=C(NCCC(=O)N1CCCCCCC1)c1ccc(Br)cc1	.	0.9	-4	-7	0.6	3.9	.	.	-10%	-1
COc1cccc(-c2nc(CS(=O)(=O)CC(=O)Nc3cc(F)ccc3F)c(C)o2)c1	-4	0.2	10	-2	1.1	0.2	0.1	-2	3%	1
COc1cc(C(=O)NC2CC3CCCC(C2)N3C2CC2)cc(OC)c1OC (centres undefined)	1	-1.0	.	.	.	.	-0.1	-6	-2%	-6
CSc1nc(N)n2nc(-c3ccc(Cl)cc3)cc2n1	5	-12	.	.	.	0.9	5.1	-2	27%	5
Cc1cc(C)n(-c2cccc(CN3CCC(CO)(Cc4ccccc4)CC3)c2)n1	-8	0.1	0	-8	-3.8	1.5	-3.7	44	0%	-5
O=C1CC(=O)N(Cc2cccs2)C(=O)N1	1	0.6	.	.	.	.	-2.8	-1	18%	4
COc1ccc(CNc2ncnc3cc(OC)c(OC)cc23)cc1	-1	0.8	.	.	.	.	-0.5	27	12%	-14
CCc1ccc2c(c1)cc(CN(Cc1ccco1)C(C)=O)c1nnnn12	-3	0.2	16	1	9.1	2.8	-0.5	30	.	-2
Cc1sc2nc(CN3CCCC3)nc(N3CCN(C(=O)c4ccco4)CC3)c2c1C	-3	-0.1	9	2	4.0	3.6	14	21	.	13
CC(=O)C1=C(O)C(=O)N(CCc2c[nH]c3ccccc23)C1c1ccccc1 (centres undefined)	-9	1.0	-7	-3	3.9	-1.4	0.6	-6	.	4
Cc1cc(=O)cc(C)n1-c1ccc2c(c1)nc(C)n2-c1ccccc1	3	0.3	4	8	-3.3	-13	1.3	-4	.	-7
Cc1ccccc1CNC(=O)C(=O)NCCC1CCCCN1S(=O)(=O)c1ccccc1 (centres undefined)	5	0.0	6	15	2.2	-2.2	2.7	22	.	2
CC1CCN(C(=O)Cn2c(=O)n(CCCC(=O)NCc3ccco3)c(=O)c3sccc32)CC1	-14	0.3	6	4	0.9	-1.6	-4.7	8	.	0
Cc1ccc(-n2nnnc2SCC(=O)N2CC(=O)Nc3ccccc32)cc1	0	0.5	.	.	.	.	-7.0	-11	?	-2
CN(C)C(=S)SCC(=O)Nc1ccc(Cl)cc1Cl	-9	-0.2	16	8	-1.9	-5.3	-1.1	-1	14%	-3
CN(CC(=O)Nc1ccc(F)cc1)C(=O)c1cccc(S(=O)(=O)N2CCN(c3ccccc3)CC2)c1	-8	0.2	-7	-57	-4.2	1.4	-0.4	2	.	.
Cc1cc(C)nc(N/N=C/c2ccccc2OCc2cccc(Br)c2)n1	3	0.5	-9	-3	-7.0	?	7.9	7	?	7
O=C(CC(C(=O)O)c1c[nH]c2ccccc12)c1ccccc1 (centres undefined)	17	-1.0	14	6	-1.9	-1.2	42*	-18	-1%	.
O=C(Nc1nc(-c2ccc([N+](=O)[O-])cc2)cs1)c1c(F)cccc1F	-1	0.3	2	6	4.1	0.1	-1.4	8	-10%	3
CC(=O)Nc1ccc(SCC(=O)c2ccc(Br)s2)cc1	6	-0.7	-12	-9	3.1	-0.6	?	11	.	1
CCOc1ccc(/C=N/OCC(=O)NC(c2ccccc2)c2ccccc2)cc1	4	0.9	.	.	.	.	-2.0	24	21%	2
O=C(NC(=S)Nc1cccnc1Cl)c1ccc(Cl)cc1	-7	-6.3	-8	1	-3.0	-1.3	2.0	-16	.	-5
Cc1ccc(CNC(=O)CN2CCN(c3ccc(F)cc3)CC2)cc1	-9	-1.5	10	9	-1.1	-6.2	5.8	12	.	.
Cn1c(COc2ccc(Cl)cc2)nnc1SCc1ncc(-c2ccccc2)o1	31	0.8	.	.	.	.	-0.9	17	?	5
CCCCOc1ccc(C(C)(O)CCN2CCOCC2)cc1 (centres undefined)	4	0.7	.	.	.	.	-4.5	.	-2%	1
SMILES	Calb FLC	Bfl-1 A1 inh	Ecoli rRNA inh	Ecoli rRNA inh OD600	Ecoli rRNA inh RFP	AF4-AF9 inh	RanGTP-Imp inh	T cruzi inh	Vif A3G	Beta cell apopt
Cc1cc(-c2ccccc2)nc(N/N=C/c2ccc(N(C)C)cc2)n1	-1	-0.1	-2	8	5.5	21	-21	-5	.	10
CCC(C)[C@H]1CN=C(N)N1CCc1cc(C(F)(F)F)cc(C(F)(F)F)c1 (some centres undefined)	-11	1.8	-59	-81	-34	4.6	0.5	16	17%	5
Cc1ccc(C(=O)O/N=C(\N)c2ccccn2)c(Cl)c1	-4	-8.7	-8	-8	-3.4	-0.7	-3.6	-19	.	.
Cc1ccc(NC(=S)NCCSc2ccc(Cl)cc2)c(C)c1	-2	0.7	-28	-37	-7.2	6.7	3.1	45	0%	5
CS(=O)(=O)c1ccc(C(=O)OCC(=O)NC(=O)C2COc3ccccc3O2)cc1[N+](=O)[O-] (centres undefined)	.	-1.0	.	.	.	-1.8	.	.	4%	-42
N#CC1=C(N)OC2=C(CN(Cc3ccccc3)C/C2=C\c2cccnc2)C1c1cccnc1 (centres undefined)	-4	-1.0	.	.	.	.	1.6	1	2%&16%	-6
CCOC(=O)c1cnc2ccc(Cl)cc2c1N1CCN(C)CC1	-18	-0.3	.	.	.	.	0.6	14	?	-6
COc1ccc(C2(C)NC(=O)N(CC(=O)N3CCc4ccccc43)C2=O)cc1OC (centres undefined)	.	-0.9	1	10	-1.0	2.2	.	.	.	4
CCCCn1c(N)c(N(CCOC)C(=O)CSc2nnc(-c3ccco3)n2CC)c(=O)[nH]c1=O	.	0.0	8	4	-0.9	-2.1	.	.	.	-4
Cn1c(=O)c2c(nc(-n3ccnc3)n2Cc2ccccc2)n(C)c1=O	20	-0.4	.	.	.	.	6.0	6	15%	.
O=C(COC(=O)Cc1ccsc1)NNC(=O)c1ccccc1	.	-0.3	9	16	-2.5	-1.3	.	.	.	-7
COc1ccc(C2=Nn3c(nnc3-c3ccccc3Cl)SC2)cc1OC1CCOC1 (centres undefined)	.	-2.1	1	6	0.8	-0.6	.	.	.	6
Cc1nc2cccc(C(=O)Oc3ccc([N+](=O)[O-])cc3)c2o1	4	-0.8	4	-1	-2.3	0.2	1.3	-6	?	0
O=C(O)CCCNC(=O)c1cccc(C(=O)NCCCC(=O)O)n1	16	0.0	.	.	.	.	-1.8	0	30%	-20
CN(C(=O)COC(=O)c1cc(S(=O)(=O)N2CCOCC2)c(Cl)cc1Cl)C1CCS(=O)(=O)C1 (centres undefined)	-6	-0.1	20	3	-2.2	1.6	3.1	-15	12%	3
CN1C(N)=NC(=O)/C1=C/c1ccc(OC(F)(F)F)cc1	17	-0.8	5	9	-2.6	-0.4	6.5	-1	9%	-3
COc1ccccc1OCCCn1cc(C#N)c2ccccc21	-1	-0.7	.	.	.	.	-1.3	5	-7%	-3
O=C(COc1ccc2ccc(=O)oc2c1)N1CCN(C(=O)C2COc3ccccc3O2)CC1 (centres undefined)	7	0.2	-1	-8	0.6	-1.7	4.8	-7	-5%	1
FC(F)(F)c1cc(-c2cccs2)n[nH]1	-28	-0.5	.	.	.	.	-2.9	0	-7%	0
O=C(CSc1nnc(CNC(=O)C23CC4CC(CC(C4)C2)C3)n1-c1ccccc1)Nc1ccc(F)cc1	-14	0.8	20	22	0.5	-4.8	?	-2	.	1
CC1CCc2nn(CC(=O)N3CCN(C(=O)c4ccco4)CC3)cc2C1 (centres undefined)	-3	0.8	4	-1	-2.0	-4.2	-4.6	-15	8%	-4
O=C(c1c(O)c2ccccc2oc1=O)C1CCC1	-3	0.3	.	.	.	.	1.0	-2	6%	3
COc1ccc(NC(=O)/C=N/O)cc1	5	-1.1	14	15	-0.7	1.0	3.8	-1	0%	-6
CNC(=O)c1ccsc1NC(=O)c1coc2ccccc2c1=O	-6	-0.2	3	8	-1.2	1.7	-1.5	-4	-6%	-1
O=C(Nc1cc(Cl)c(Cl)cc1Cl)c1cccnc1	-2	0.6	-20	-11	-5.4	2.1	4.5	-15	.	.
SMILES	Calb FLC	Bfl-1 A1 inh	Ecoli rRNA inh	Ecoli rRNA inh OD600	Ecoli rRNA inh RFP	AF4-AF9 inh	RanGTP-Imp inh	T cruzi inh	Vif A3G	Beta cell apopt
COc1cccc(C(=O)NN=C2CCCC2)c1	0	0.9	13	19	1.9	-8.4	1.4	-2	.	0
O=C(CSc1nnnn1-c1ccccc1)CC(=O)Nc1ccc(Cl)cc1	-8	0.0	.	.	.	.	-2.8	-8	6%	6
Cc1cnc(NS(=O)(=O)c2ccccc2)c(C)n1	2	0.3	19	16	1.0	0.3	-2.0	-9	-1%	0
CC12C(=O)N(NC(=O)c3ccncc3)C(=O)C1C1C=CC2C1 (centres undefined)	20	0.6	5	7	1.3	-2.0	3.4	1	24%	-9
Cc1nc(NCC2CCCO2)c2nnn(Cc3c(F)cccc3Cl)c2n1 (centres undefined)	-5	0.1	-7	-1	2.8	1.1	1.0	6	.	0
O=C(Nc1ccc(Cl)cc1)C1c2cccc[n+]2CC(=O)N1Cc1ccc2c(c1)OCO2 (centres undefined)	-2	-0.5	4	1	-2.9	-1.7	3.7	-8	25%	0
Cc1cccc2sc(NC(=O)CCNS(=O)(=O)c3cccs3)nc12	-11	0.3	.	.	.	.	1.6	4	8%	11
O=C(CC12CC3CC(CC(C3)C1)C2)NCc1ccncc1	-2	-0.6	.	.	.	.	3.9	0	7%	12
CCCCNc1nc(N)nc(-c2cc(Cl)ccc2O)n1	61	-4.5	.	.	.	.	6.9	15	6%	-13
NC(N)=NC1=NC(=O)C(Cc2ccccc2)S1 (centres undefined)	-6	-0.4	7	3	6.5	9.3	0.8	-3	6%	-3
C=CCSc1nc(-c2ccc3c(c2)OCO3)cc(C(F)(F)F)c1C#N	4	0.3	.	.	.	.	14	50	-19%	15
CCOc1cc(/C=N\NC(=O)c2ccc(C)nc2)cc([N+](=O)[O-])c1O	3	-1.4	-3	0	-5.0	-74	-0.2	-16	4%	-4
Cc1ccc(F)cc1NC(=O)CCNC(=O)c1ccc([N+](=O)[O-])cc1	-20	-0.8	9	14	-2.7	1.7	-0.4	-2	.	4
CC(Sc1ccc(Cl)cc1)C(=O)NCc1cccnc1 (centres undefined)	-9	0.4	.	.	.	.	7.8	-7	-1%	.
CC1CC(C)CN(CCOCCSc2ccccc2)C1 (centres undefined)	5	1.2	11	0	-5.3	-1.8	1.7	60*	.	-1

Screens deposited in PubChem by several laboratories.
